Cruzain noTriton: qHTS Assay for Promiscuous and Specific Inhibitors of Cruzain (without detergent); Cruzipain (Trypanosoma cruzi), P25779; purified cruzain, Z-FR-AMC fluorescence, no detergent; Potency, µM, inactives show max response, negative = inhibition, most hits filed as inhibitors; 200,000 tested, 2.3% active; AID 1476, 2009;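 also: plate controls were enzyme without inhibitor for no effect and buffer without enzyme for full effect; nearly all actives have a fitted effect of over 40% in size; top concentration of the series not given in the record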
Target sequence (P25779 123-467 limits assumed): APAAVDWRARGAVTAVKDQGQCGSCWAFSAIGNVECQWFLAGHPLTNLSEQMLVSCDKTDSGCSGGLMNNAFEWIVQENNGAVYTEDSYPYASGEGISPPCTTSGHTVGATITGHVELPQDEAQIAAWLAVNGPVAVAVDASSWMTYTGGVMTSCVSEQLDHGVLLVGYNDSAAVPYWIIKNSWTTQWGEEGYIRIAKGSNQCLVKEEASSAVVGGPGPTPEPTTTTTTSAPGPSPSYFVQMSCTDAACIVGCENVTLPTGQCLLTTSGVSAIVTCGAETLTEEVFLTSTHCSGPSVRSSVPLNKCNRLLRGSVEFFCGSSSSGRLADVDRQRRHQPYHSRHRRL
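Detergent-free condition (0.00005% Triton X-100) in acetate buffer pH 5.5 with DTT. 1.5 nM enzyme and compound were pre-mixed 15 min, then 2 uM Z-FR-AMC substrate added; reaction progress from fluorescence change between first and third reads (60 s).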
Cruzain Triton: qHTS Assay for Promiscuous and Specific Inhibitors of Cruzain (with detergent); Cruzipain (Trypanosoma cruzi), P25779; purified cruzain, Z-FR-AMC fluorescence, 0.01% Triton; Potency, µM, for the others: max response, negative = inhibition, hits mostly inhibitors; 200,000 tested, 0.43% active;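 also: plate controls were neutral wells for no effect and buffer without enzyme for full effect; nearly all actives have a fitted effect of over 40% in size; top concentration of the series not given in the record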
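Purified cruzain (1.5 nM final) was preincubated with compounds for 15 min at room temperature in 100 mM sodium acetate pH 5.5, 5 mM DTT, 0.01% Triton X-100. Reaction started with 2 uM Z-FR-AMC; AMC fluorescence change over 60 s gave activity.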
Lassa entry inh: qHTS for Inhibitors of binding or entry into cells for Lassa Virus | Lassa virus pseudotype entry inhibition, cell reporter; control for the full effect not named in the record | Potency, µM (series often up to 37.9 µM), inactives show top-dose activity change, negative = inhibition, hits mostly inhibitors | 300,000 tested, 1.2% active; active means well fitted inhibition curve with a large enough effect; inconclusive means small, poorly fitted or top-dose-only effect, or effect the other way; inactive means flat fitted curve, though single readings scatter; tested in HEK293 cells; also: % is scaled to controls: 0 for no effect and ±100 for the full control effect; nearly all actives have a fitted effect of over 50% in size; luciferase read-out
RE007 growth inh: qHTS Assay for Inhibitors of the HIV-1 protein Vpr; 360,000 tested, 0.21% active; S. pombe RE007 Vpr strain, BacTiter-Glo ATP luminescence, 24 h; control for the full effect not named in the record; Potency, µM (top dose mostly 92.2 µM), for inactives: at the highest dose activity change, negative = less growth; active = well fitted falling curve with a large enough effect; inconclusive = small, poorly fitted or top-dose-only effect; inactive = no such curve, though single readings can be large or run the other way;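 also: % is scaled to controls: 0 for no effect and ±100 for the full control effect; nearly all actives have a fitted effect of over 50% in size; the assay follows cell death caused by Vpr and the record does not say whether a fall means rescue or toxicity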
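Fission yeast RE007 carrying one integrated HIV-1 vpr copy, seeded at OD 0.01 in PMG+AL medium with 23 nL pinned compound. Grown 24 h at 30 degrees; viability read by BacTiter-Glo luminescence after 5 min.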
SARS PLP yeast: qHTS of Yeast-based Assay for SARS-CoV PLP; S. cerevisiae expressing SARS-CoV PLpro, growth rescue; control for the full effect not named in the record; Potency, µM (titrated, usually from 32.9 µM), without a hit: top-dose activity, positive = growth rescue; 330,000 tested, 0.19% active; active means well fitted rising curve with a large enough effect; inconclusive means small, poorly fitted or top-dose-only effect; inactive means no such curve, though single readings can be large or run the other way; also: 0% is about no effect; nearly all actives have a fitted effect of over 55% in size; growth read by luminescence after 48 h
StopGo reporter: High Throughput Screening for Foot and Mouth Disease Virus Antivirals | human cells with a luciferase reporter of 2A StopGo recoding; control for the full effect not named in the record | Potency, µM (series often up to 57.9 µM), for inactives: at the highest dose signal change, negative = less light | 410,000 tested, 1.2% active | AID 1159524, 2015; active = well fitted falling curve with a large enough effect; inconclusive = small, poorly fitted or top-dose-only effect; inactive = no such curve, though single readings can be large or run the other way; tested in HEK293T cells; also: % is scaled to controls: 0 for no effect and ±100 for the full control effect; nearly all actives have a fitted effect of over 45% in size; luciferase light after 4 h
NS1 inh: qHTS Assay for Inhibitors of Influenza NS1 Protein Function. 270,000 tested, 0.4% active. Potency, µM (highest dose often 46.1 µM), inactives show at the top dose activity, positive = more growth. S. cerevisiae slowed by influenza A NS1, growth recovery by OD600. AID 2326, 2010; active means well fitted rising curve with a large enough effect; inconclusive means small, poorly fitted or top-dose-only effect; inactive means no such curve, though single readings can be large or run the other way; also: nearly all actives have a fitted effect of over 50% in size
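Read-out: OD600 growth recovery of NS1-expressing budding yeast. Cells grown overnight at 30C in -URA glucose medium, washed, resuspended and diluted 1:100 in 2% galactose assay medium, pH 6.0. Same strain lacking NS1 served as positive control.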
MARV entry inh: qHTS for inhibitors of binding or entry into cells for Marburg Virus; Potency, µM (doses to about 37.8 µM), inactives show top-dose activity change, negative = inhibition, usual class: inhibitors; 300,000 tested, 1.8% active; Marburg virus pseudotyped entry inhibition, cell reporter; control for the full effect not named in the record; about a third of the inactives were read at about 46 µM; AID 540276, 2011; active = well fitted inhibition curve with a large enough effect; inconclusive = small, poorly fitted or top-dose-only effect, or effect the other way; inactive = flat fitted curve, though single readings scatter; tested in HEK293 cells; about a fifth of its hits are not listed in these tables; also: % is scaled to controls: 0 for no effect and ±100 for the full control effect; luciferase read-out
Starred values were filed as active, the others as inactive; ? = inconclusive; . = no result given; & = joins results of further samples; [ ] = remark or other dose. Unless noted, calls follow the shape of the dose curve; as a rule, active = well fitted curve in the direction sought with a large enough effect; inconclusive = small, poorly fitted or top-dose-only effect, or another doubt; inactive = no such curve, though single readings can be large; an effect the other way counts as inactive or inconclusive. Potency is read from the fitted curve at half-maximal effect.

SMILES | Cruzain noTriton | Cruzain Triton | Lassa entry inh | RE007 growth inh | SARS PLP yeast | StopGo reporter | NS1 inh | MARV entry inh
CCn1c(SCC(=O)Nc2nonc2C)nnc1-c1ccco1 | 7% | 3.3% | 6% | -2% | 2% | 10% | -10% | -12%
COc1ccc(/C=N/NC(=O)c2nc(-c3ccccc3)n(-c3ccccc3)n2)cc1OC | 6% | -8.6% | ? | 0% | -12% | -15% | 13% | 21%
COc1cc(/C=C/C(=O)OCC(=O)NCc2ccco2)ccc1O | . | . | ? | 24% | 6% | -3% | . | ?
Cc1cccc2cc(CN(Cc3ccco3)C(=O)N3CCCC3)c(=O)[nH]c12 | -3% | 1.6% | . | . | 3% | . | -3% | 2%
CCN(Cc1ccncc1)C(=O)CCc1nnc(CCc2ccccc2OC)o1 | . | . | . | -18% | -1% | -7% | 1% | .
O=[N+]([O-])c1ccc(/C=N/Nc2nc(NCc3ccccc3)nc(N3CCOCC3)n2)cc1 | . | . | -25% | -3% | 1% | ? | . | ?
COc1ccc2cc3cc(C(=O)N4CC(C)CC(C)C4)oc3nc2c1 (stereo not given) | . | . | . | -8% | -3% | 5% | -13% | .
O=C(NC(=S)Nc1ccccn1)c1cncc(Br)c1 | -3% | -3.8% | ? | -11% | 17% | 46%[activator] | 7% | 0%
CCOc1ccc(C(=O)Cn2c(=O)n3nc(CCn4nc(C)cc4C)nc3c3cc(OC)c(OC)cc32)cc1 | -5% | 5.4% | 13%[46.1 µM] | . | . | -7% | . | .
Cc1cc(OCC(=O)Nc2sc3c(c2C(N)=O)CCCC3)ccc1C(C)C | 1% | -20% | -2%[46.1 µM] | . | . | -11% | . | .
CN(Cc1cccnc1)Cc1cn[nH]c1-c1ccc(-c2ccccc2)cc1 | . | . | 2% | -9% | 0% | 6% | 2% | -5%
CCOC(=O)Cn1c(=O)n(Cc2ccccc2)c(=O)c2cccnc21 | . | . | . | -6% | 0% | -15% | 1% | .
Cc1ccc(-c2nnc(Nc3ccc(O)cc3)c3ccccc23)cc1S(=O)(=O)NCc1nc2ccccc2[nH]1 | -4% | -3.1% | 16%[46.1 µM] | . | . | 22% | . | -1%[46.1 µM]
O=C(COC(=O)/C=C/c1cccs1)Nc1ccc2ccccc2c1 | 4% | -6.5% | 10% | 7% | 5% | 15% | -3% | 12%
N#CCc1nnc2n1-c1ccccc1CCC2 | 6% | 2.2% | 1% | 3% | 8% | 13% | -13% | 23%
O=C(Nc1ccc(C(=O)O)cc1)/C(=C\C=C\c1ccccc1)NC(=O)c1ccccc1Cl | . | . | -39% | -4% | -2% | 14% | -11% | -25%
COc1ccccc1N1CCN(C(=O)CSc2nnc3c4ccccc4n(CC(=O)O)c3n2)CC1 | ? | -5.0% | 1% | 1% | -16% | -8% | -4% | ?
O=C(Nc1ccc(F)cc1)N1CCN(C(=O)c2nsc3ccccc23)CC1 | -5% | -3.0% | 2%[46.1 µM] | . | . | -17% | . | .
CN(Cc1cnn(C)c1)S(=O)(=O)c1cccc([N+](=O)[O-])c1 | . | . | -12% | -6% | 0% | -3% | 1% | 1%[14.2 µM]
CC(=O)c1cccc(NC(=O)C2CCN(C(=O)c3ccccc3Cl)CC2)c1 | . | . | 0% | 2% | -4% | ? | -1% | -9%
c1ccc(Nc2nnc(-c3cccnc3)s2)cc1 | . | . | ? | 4% | 1% | -18% | -1% | ?
N#CC1=C(N)OC2=C(C(=O)CCC2)C12C(=O)N1CCCc3cccc2c31 (stereo not given) | 2% | -0.6% | -3% | 1% | 3% | -18% | 15% | -5%
O=C(Cn1nnc2ccccc2c1=O)NCCc1ccccc1 | 17% | -1.6% | ? | 0% | -7% | 20% | 3% | 29%
O=C(NNC(=O)c1ccc([N+](=O)[O-])cc1)NC1CCCCC1 | . | . | . | -12% | 0% | 11% | 3% | .
COc1ccc(Cl)cc1NC(=O)c1nn(-c2ccc(C)cc2)c(=O)n(C)c1=O | 2% | -1.0% | ? | . | . | -26% | . | .
Nc1cc2c(cc1C(=O)c1ccccc1)OCCO2 | 0% | 0.8% | ? | -9% | 8% | 1% | -12% | -6%
COc1ccc(-c2cc(C(=O)NCCCN3CCCC3=O)c3ccccc3n2)cc1 | . | . | 0% | 6% | 3% | 24% | . | -18%
CN(C)S(=O)(=O)c1ccc(C(=O)Nc2nc3ccccc3[nH]2)cc1 | . | . | . | 10% | -1% | 24% | . | -10%[46.1 µM]
Cc1oc(-c2ccc(C(=O)Nc3ccc(F)cc3)cc2)nc1COc1ccccc1 | 19% | -1.9% | -8%[46.1 µM] | . | . | ? | . | .
COCCCN(C(=S)Nc1c(C)cc(C)cc1C)C(C)c1ccncc1 (stereo not given) | 2% | -1.6% | 3% | 5% | -1% | 18% | 4% | ?
CC(=O)Oc1ccc2c(=O)c(N3C(=O)c4ccccc4C3=O)c(C)oc2c1C | . | . | 7% | 3% | 0% | 2% | -4% | ?
CCOc1ccccc1-c1noc(CSc2nnc(-c3ccncc3)n2-c2ccc(F)cc2)n1 | -3% | -4.1% | . | . | . | -20% | . | .
COc1ccc(CNC(=O)CC2Oc3ccc(C)cc3NC2=O)cc1 (stereo not given) | -1% | -0.2% | . | . | . | -15% | . | 1%[46.1 µM]
CCCn1c(Nc2cccc(OC)c2)nc2ccccc21 | . | . | . | -19% | -2% | 26% | -9% | .
COc1ccc(Cn2c(=O)cc(N)n(-c3ccccc3C)c2=O)cc1 | . | . | -28% | 2% | 0% | -19% | 2% | ?
COC(=O)c1c(C)oc2ccc(N(C(=O)c3ccncc3)S(=O)(=O)c3cc(C)c(C)cc3C)cc12 | 2% | -5.6% | ? | . | . | 0% | . | ?
O=C(Cn1cnc2c(nnn2Cc2ccc(F)cc2)c1=O)OCc1ccccc1 | 14% | -3.3% | -10% | 4% | ? | . | -8% | 10%
COc1ccc(NC(=O)COC(=O)c2ccc3c(c2)OCO3)c(OC)c1 | . | . | ? | -8% | 4% | -18% | . | -30%
CCOC(=O)c1[nH]ncc1[C@@H]1C[C@H]2CN(Cc3cccc(Cl)c3)C(=O)[C@]23CCCN13 | . | . | . | -20% | 2% | 1% | -1% | .
CCOc1ccc(NC(=O)C2CCN(c3nc4ccccc4[nH]3)CC2)cc1 | 5% | 2.9% | -2%[46.1 µM] | . | . | -1% | . | .
CCOC(=O)C1CCCN(c2c(NCCc3ccc(C)cc3)c(=O)c2=O)C1 (stereo not given) | . | . | 10% | 7% | 0% | -6% | -3% | 0%
COc1ccc(N2CCN(C(=O)NCc3ccc(OC)c(Cl)c3)CC2)cc1 | . | . | 1% | 32% | 1% | 5% | . | ?
Cc1sc2c(c1C)c(=O)n(-c1cccc(C(F)(F)F)c1)c(=O)n2CC(=O)NCc1ccco1 | ? | 2.3% | 3% | -5% | -4% | -18% | 1% | 26%
CCN1CCN(c2nc(C)c3c(n2)CCCC3=O)CC1 | -3% | 2.7% | -29% | -4% | -4% | 7% | -2% | 20%
COCCCNc1nc2ccccc2nc1NS(=O)(=O)c1ccc(F)cc1 | . | . | . | 1% | 1% | -16% | -5% | .
CSCCC(NS(=O)(=O)c1ccc(C)c(C(=O)O)c1)C(=O)O (stereo not given) | . | . | -4%[46.1 µM] | 6% | -6% | 0% | . | 0%[46.1 µM]
N/C(=N\OC(=O)c1ccc([N+](=O)[O-])cc1)c1ccc(Br)cc1 | . | . | 10%[46.1 µM] | 18% | -3% | 44%[activator] | 5% | 11%[46.1 µM]
COc1ccc(/C=N/NC(=O)c2ccc(COc3ccccc3Cl)o2)c(OC)c1C | ? | -2.6% | ? | 18% | 13% | -20% | 20% | ?
COc1cc(NC(=O)c2cc([N+](=O)[O-])ccc2NC(=O)CN2CCN(c3ccccn3)CC2)cc(OC)c1 | . | . | ? | -21% | 1% | -25% | 4% | 8.9µM*
O=C1/C(=C/c2ccccc2F)SC(=S)N1CCC(=O)N1CCCCC1CCO (stereo not given) | . | . | ? | -5% | -11% | -13% | -11% | ?
O=C(NCc1ccccc1F)C1CCCN(C(=O)Nc2ccc(F)cc2)C1 (stereo not given) | . | . | -10% | -1% | 2% | -16% | 11% | ?
COc1ccc(NC2CCCN(C(=O)c3ccc4nccnc4c3)C2)cc1OC (stereo not given) | . | . | 0% | -4% | 24% | -8% | 15% | -5%
O=C1OCCC1Sc1nc2ccccc2c(=O)n1-c1ccc(F)cc1 (stereo not given) | . | . | 0% | 1% | -1% | -15% | 0% | 8%[14.2 µM]
COC(=O)COc1ccc(Oc2nc(SC)nc(N(C)C)n2)nn1 | 5% | 0.9% | 13% | 4% | 0% | -6% | 1% | -17%&-17%
CCCCCC(=O)Nc1ccccc1N1CCOCC1 | 1% | -0.8% | 6% | 9% | 7% | -8% | -3% | ?
O=C(Cn1c(=O)cnc2ccccc21)Nc1ccccc1N1CCOCC1 | . | . | 29% | 10% | 0% | -17% | 10% | 20%
COc1ccccc1C(=O)N/C(=C\c1ccc2c(c1)OCO2)C(=O)NCCc1nc2ccccc2[nH]1 | -5% | -15% | ? | -3% | 0% | 0% | 17% | ?
CC(=O)c1nn(-c2cccc(Br)c2)cc1C(=O)c1ccco1 | -12% | -2.3% | -2% | 0% | 12% | -1% | 5% | 2%
O=S(=O)(N/N=C1\CC(c2ccccc2)Oc2ccccc21)c1ccccc1 (stereo not given) | -23% | -1.2% | 3% | ? | -18% | -6% | -6% | -8%[46.1 µM]
CCCOc1ccc(Cl)cc1CN1CCOCC1 | 0% | 14% | 13% | 0% | . | -20% | -12% | -7%&-7%
